# Screening results (PubChem)
# Anaer choline gr: choline-fed anaerobic bacterial growth inhibition; Gram-negative bacterium anaerobic choline minimal medium, absorbance growth; hits give low values; many inactives read as strong as hits in the columns shown; calls only; 0.2% of 55,000 active; AID 1963822;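 active = growth z-score on choline under -2 at 7 or 20 h with little or no fall on glycerol, limits in tiers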;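 note: stock transfer was 300 nL into about 50 µL; the organism is E. coli; final concentration not given here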
# Anaer choline gr early: also measured in Anaer choline gr; calls as there; z-score; measured here: choline growth z-score, timepoint 1;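 score of optical density at 7 h as mean of two plates; lower means less growth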
# An asterisk follows results filed as active; i = inactive; & = joins results of further samples. A portion of the library; rates above refer to the full screens.
compound | Anaer choline gr | Anaer choline gr early
CCN(C(=O)CSc1nc2cc(-c3ccccc3)sc2c(=O)n1C)c1ccccc1 | i | -1.2
COc1ccc(C(=O)NCC(=O)NCc2cscn2)cc1 | i | -0.53
Cc1c(N2CCN(C(=O)CN3C(=O)C(C)Oc4ccccc43)CC2)c(=O)n(C)c(=O)n1C (stereo not given) | i | 0.6
CCOc1ccc(NC(=O)C2CCCN2S(=O)(=O)c2ccc3c(c2)CCCC(=O)N3)cc1 (stereo not given) | i | 0.62
O=C(CS(=O)Cc1cnn(-c2ccccc2)c1-n1cccc1)N1CCCC1 (stereo not given) | i | 0.62
Cc1ccc(N2C(=O)CCS2(=O)=O)cc1S(=O)(=O)NC1CCCCC1 | i | 0.86
Cc1cccc(Nc2ncnc3onc(C)c23)c1 | i | 0.84
CCN(Cc1ccc(C(C)C)cc1)Cc1cc(=O)n2c(C)csc2n1 | i | -0.14
CCCNC(=O)Nc1ccc(-c2noc(/C=C/c3ccccc3Cl)n2)cc1 | i | 1.1
O=C(NCCCN1CCCC1=O)c1ccc2ccnc(N3CCN(c4ccc(Cl)cc4)CC3)c2c1 | i | -0.17
CN1CCN(C(=O)C2(c3ccc(F)cc3)CC2)CC1 | i | -2
COc1ccc(NC(=O)CSc2nnc(-c3cc4ccccc4n3C)o2)c(OC)c1 | i | -1.5
O=C(Nc1ccc2c(c1)OCCO2)c1ccc(-c2nccc(Oc3ccccc3)n2)cc1 | i | -0.66
O=C(c1ccc(S(=O)(=O)N2CCOCC2)cc1)N(c1cccc(Cl)c1)C1C=CS(=O)(=O)C1 (stereo not given) | i | 0.2
CN(CCCNC(=O)c1nn(C)c2c1CSc1ccccc1-2)c1ccccc1 | i | 1.7
O=C(Nc1ccc2c(c1)OCO2)Nc1ccc2nc3n(c(=O)c2c1)CCCC3 | i | -1.6
O=c1ccc(-c2ccc(Cl)c(S(=O)(=O)Nc3ccccc3)c2)n[nH]1 | i | -0.12
Cc1cc(C)n(-c2nnc3n2N=C(c2c[nH]c4ccccc24)CS3)n1 | i | 0.58
CCC(C(=O)NCc1ccc(Cl)cc1)N1C(=O)CCCc2ccccc21 (stereo not given) | i | 1.1
Cc1cc(C)c(NC(=O)c2cc(-c3cccnc3)on2)c(C)c1 | i | -0.17

# Among those listed so far, 5 contain a Cl atom.
compound | Anaer choline gr | Anaer choline gr early
CCCNC(=O)Nc1ccc(-c2noc(/C=C/c3ccccc3Cl)n2)cc1 | i | 1.1
O=C(NCCCN1CCCC1=O)c1ccc2ccnc(N3CCN(c4ccc(Cl)cc4)CC3)c2c1 | i | -0.17
O=C(c1ccc(S(=O)(=O)N2CCOCC2)cc1)N(c1cccc(Cl)c1)C1C=CS(=O)(=O)C1 (stereo not given) | i | 0.2
O=c1ccc(-c2ccc(Cl)c(S(=O)(=O)Nc3ccccc3)c2)n[nH]1 | i | -0.12
CCC(C(=O)NCc1ccc(Cl)cc1)N1C(=O)CCCc2ccccc21 (stereo not given) | i | 1.1

# Next entries follow:
compound | Anaer choline gr | Anaer choline gr early
Cc1nn(-c2ccccc2)c2c1N(C(=O)CCC(=O)NCc1ccccn1)CCS2 | i | 1.1
CCOC(=O)c1c(NC(=O)CSc2nnc(CNC(=O)Cc3ccccc3)n2C)sc2c1CCCCC2 | i | 1.7
O=C(CN1c2ccc(F)cc2-c2ccccc2S1(=O)=O)NC1CC1 | i | -0.97
O=c1n(Cc2ccccc2)nc2c(-c3nc(-c4ccccc4)no3)cccn12 | i | 0.58
CCc1ccc(OCc2nc(C)c(C(=O)Nc3nnc(C4CC4)s3)s2)cc1 | i | 1.7
COC(=O)c1cc(S(=O)(=O)N2CCCC2C(=O)Nc2ccc(Br)cc2F)cn1C (stereo not given) | i | 0.69
O=C(c1ccccc1)N1CCOc2ccc(COCc3cccc(F)c3)cc2C1 | i | -0.57
CCOc1ccc(N(Cc2nc3nc(C)cc(=O)n3[nH]2)S(=O)(=O)c2ccccc2)cc1 | i | 0.07
Nc1ccc(N2CCn3c(nc4ccccc43)C2)cc1 | i | -0.21
CCCC(C)NC(=O)c1cnc2scc(C)n2c1=O (stereo not given) | i | 0.17
N#CC1=CN(c2ccc(F)c(Cl)c2)c2cc(Cl)ccc2S1(=O)=O | i | 1.7
O=C1CCc2cc(S(=O)(=O)Nc3ccccc3)cc3c2N1CC3 | i | -1.2
COCCN1C(=O)c2ccccc2Sc2cc(NC(=O)C3CC3)ccc21 | i | -1.3
CCn1c(COc2ccccc2OC)nc2ccccc21 | i | 0
CCc1ccc(-c2noc(-c3nnn(Cc4nc(-c5ccc(C)cc5)oc4C)c3C)n2)cc1 | i | 0.12
COc1ccc(-n2c(C)cc(CNS(=O)(=O)c3ccc(NC(C)=O)cc3)c2C)cc1 | i | -0.45
Cc1cccc(C(=O)Nc2ccc3c(c2)CCC(=O)N3C)c1 | i | -0.25
COc1ccccc1NC(=O)N1CCCn2nc(C)cc21 | i | 1.1
CCCCNC(=O)c1ccc2c(c1)S(=O)(=O)N=CN2CCC | i | -1.8
COc1ccc2cc3c(nc2c1)N(S(=O)(=O)c1c(C)cc(C)cc1C)CC3 | i | 1

# An excerpt of these results, as labelled records:
smiles: Cc1nn(-c2ccccc2)c2c1N(C(=O)CCC(=O)NCc1ccccn1)CCS2
  Anaer choline gr = i
  Anaer choline gr early = 1.1
smiles: CCOC(=O)c1c(NC(=O)CSc2nnc(CNC(=O)Cc3ccccc3)n2C)sc2c1CCCCC2
  Anaer choline gr = i
  Anaer choline gr early = 1.7
smiles: O=C(CN1c2ccc(F)cc2-c2ccccc2S1(=O)=O)NC1CC1
  Anaer choline gr = i
  Anaer choline gr early = -0.97
smiles: O=c1n(Cc2ccccc2)nc2c(-c3nc(-c4ccccc4)no3)cccn12
  Anaer choline gr = i
  Anaer choline gr early = 0.58

# Additional compounds.
compound | Anaer choline gr | Anaer choline gr early
COc1cccc(NC(=O)CSc2ncc3c(n2)-c2ccccc2N(Cc2ccc(C)cc2)S3(=O)=O)c1 | i | 0.8
Cc1cccn2c(=O)c(NC(=O)c3ccccc3)cnc12 | i | 0.63
Cc1ccccc1-c1noc(-c2cc(-c3cccc(Br)c3)n[nH]2)n1 | i | 0.34
Cc1cc(C2CCCN2C(=O)c2cc(-c3cccc(Cl)c3)on2)on1 (stereo not given) | i | 0.36
O=C(c1cc(-c2ccccc2)nc2ccccc12)N1CCN(c2ccccc2)CC1 | i | 0.24
O=C(Nc1ccccc1Cl)C1CCN(c2nc3ccccc3nc2C(F)(F)F)CC1 | i | 1.3
CCOC(=O)Cn1c(=O)n(CC2CCCO2)c2nc(-c3ccc(CC)cc3)nc(C(N)=O)c21 (stereo not given) | i | -0.72
CCOC(=O)c1ccccc1NC(=O)Cc1c(C(=O)O)c(C)cn1CC | i | 0.06
CCOC(=O)C1CCN(C(=O)C2c3ccccc3C(=O)N3CCc4ccccc4C23)CC1 (stereo not given) | i | -1.3
CCOC(=O)CSc1nn(CC)c2nc3c(c(=O)n12)C(CC)(CC)Cc1ccccc1-3 | i | 0.02
O=C(c1ccc2nc(N3CCCCC3)sc2c1)N1CCN(c2ccccn2)CC1 | i | -0.3
CC1CNc2ccccc2N(Cc2ccccc2Cl)C1=O (stereo not given) | i | -0.28
O=C(c1cc(S(=O)(=O)N2CCCC(C(=O)N3CCOCC3)C2)c[nH]1)N1CCCC1 (stereo not given) | i | -1.5
Cc1cc(-c2ccc(C)c(S(=O)(=O)CCC(=O)Nc3ccc(S(N)(=O)=O)cc3)c2)on1 | i | -0.54
CCOc1ccc(-c2noc(-c3cn(-c4ccccc4)c(=O)c4ccccc34)n2)cc1 | i | 0.37
Cc1nn(-c2ccc3nnc(C)n3n2)c(C)c1CCC(=O)Nc1ccc(F)c(F)c1 | i | -1.1
COc1ccc(-c2nn3c(COc4ccc(Br)cc4)nnc3s2)cc1OC | i | -0.38
Cn1c(=O)c(=O)n(C)c2cc(Oc3ccccc3)c(NS(=O)(=O)c3ccc4c(c3)CCCC4)cc21 | i | 0.13
CCCNC(=O)c1sc(-c2nnn(-c3ccccc3)c2C)nc1C | i | 0.03
Cc1nn(-c2cccc(Cl)c2)c2nc(-c3ccccn3)cc(C(F)(F)F)c12 | i | -0.87
Cc1nn(C)c2c(N3CCC(C(=O)NCCN4CCC(N5CCCCC5)CC4)CC3)nccc12 | i | -0.08
CCCc1ccc(S(=O)(=O)Nc2ccc3c(c2)CCC(=O)N3CC)cc1 | i | 0.75
CN(C)S(=O)(=O)c1ccc(-c2nnc(C(=O)NC3CCCC3)o2)cc1 | i | -0.01
Cc1ccc(C(C)C)c(OCc2nc3c4cnn(-c5ccccc5)c4ncn3n2)c1 | i | 0.43
O=C(CCCN1C(=O)c2cccnc2Oc2ccc(Cl)cc21)NCc1ccc2c(c1)OCO2 | i | -0.27
OC(c1ccc(F)cc1)c1cccnc1 (stereo not given) | i | -0.88
Cc1ccccc1CNC(=O)c1ccc(Nc2ncc(-c3cccc(F)c3)cn2)cc1 | i | 1.2
CN(C)CCCNC(=O)c1cc2c(s1)CN(C1CCCC1)C2 | i | 0.67
Cc1ccc(NC(=O)N2CCC(n3cnc4cc(C(=O)N(C)C)ccc43)CC2)cc1C | i | -0.1
Cc1cccc(-c2nc3c4c(C)c(C)n(Cc5cccnc5)c4ncn3n2)c1 | i | 0.55
O=C(CSc1nnc2c(=O)n(-c3ccc(Br)cc3)ccn12)c1c[nH]c2ccccc12 | i | 0.21
Cc1ccnc(NC(=O)CN2C(=O)CCc3cc(S(=O)(=O)N4CCCC4)ccc32)c1 | i | 0.08
Cc1ccc(-n2nc(N3CCCN(C(=O)C4CC(=O)N(C5CCCCC5)C4)CC3)ccc2=O)cc1C (stereo not given) | i | -0.12
CCNC(=O)N1CCCC1c1cc(C)no1 (stereo not given) | i | 0.21
Cc1cccc(CN2C(=O)c3ccncc3C2=O)c1 | i | -0.66
Cn1c(=O)n(CC(N)=O)c(=O)c2c1nc1n2CCCN1C1CCCCC1 | i | 0.77
COc1ccc(Nc2c(-c3ccc(OC)c(OC)c3)nc3cnccn23)cc1OC | i | 0.62
Cc1[nH]nc2c1C(c1cccc(O)c1)CC(=O)N2 (stereo not given) | i | -0.91
COCC(=O)Nc1ccccc1SCc1cc(=O)n2c(ncn2C(C)C)n1 | i | 0.91
COc1ccc(OC)c(CNC(=O)c2ccc(-c3cnc(NCc4ccccc4)nc3)cc2)c1 | i | -0.3
O=C(c1nnc(-c2ccc(S(=O)(=O)N3CCOCC3)cc2)o1)N1CCN(C2CCCCC2)CC1 | i | -0.41
O=C1COc2ccc(C(=O)Nc3cccc(F)c3)cc2N1 | i | -0.33
O=C(NCc1ccccc1)c1cccc(Oc2cc(-c3ccccc3)ncn2)c1 | i | -0.07
COC(=O)CCc1sc(Nc2ccccn2)nc1-c1ccc(OC)cc1 | i | -0.32
C=C1/C(=C/C=C2/CCC[C@]3(C)[C@@H]([C@H](C)CCCC(C)C)CC[C@@H]23)C[C@@H](O)C[C@@H]1O | i | 0.37&0.28
O=C1CCCN1c1ccc(S(=O)(=O)Nc2ccc(-c3cc4cc(Cl)ccc4[nH]3)cc2)cc1 | i | 0.47
CCO/C([O-])=N/c1c[n+](N2CCOCC2)no1 | i | 0.26&0.22&-0.37
CCc1c(C)nc2ncnn2c1NCc1ccc(C)cc1 | i | -0.49
COc1ccc(NC(=O)c2cc(-c3ccccn3)n[nH]2)c(OC)c1 | i | 1.3
Cc1ccc(Cn2cccc2CNS(=O)(=O)c2ccc3[nH]c(=O)oc3c2)cc1 | i | -0.29
CCN1CCN(c2nc3ncn(CC(=O)Nc4cc(F)ccc4F)c(=O)c3s2)CC1 | i | -0.11
O=C(O)COc1cccc(-c2ocnc2-c2nc(-c3ccccc3)c(-c3ccccc3)o2)c1 | i | 0
CC(C)c1csc(-c2csc(S(=O)(=O)Nc3ccc(F)c(F)c3)c2)n1 | i | 2.5
CC(=O)Nc1ccc(C(=O)Nc2ccc(CCc3nc4ccccc4n3-c3ccccc3)cc2)cc1 | i | 0.64
O=C(CC1CCCC1)N1CCOc2ccc(COCc3ccccc3)cc2C1 | i | -1
O=C(O)c1nnn(Cc2ccccc2)c1C(=O)O | i | -0.06
CS(=O)(=O)N(Cc1nnc(SCC(=O)N2CCOCC2)n1-c1ccccc1)c1ccc(F)cc1 | i | -0.16
O=S1(=O)N=CN(c2ccc(Cl)c(F)c2)c2ncccc21 | i | 0.15
CCCCCCNC(=O)C1CCN(c2cc(-c3ccc(F)cc3)ncn2)CC1 | i | 0.89
Cc1cc(CN2CCN(C3CCCCC3)CC2)on1 | i | -0.11

# (continued)
compound | Anaer choline gr | Anaer choline gr early
O=C(NC1CCCC1)c1ncoc1-c1ccccc1C(=O)N1CCCC1 | i | 0.56
O=C(CCC(=O)N1Cc2cccn2-c2ccccc21)NCc1ccc2c(c1)OCO2 | i | -1.7
O=C(CC1CCCCC1)Nc1nnc(SCc2nnc(-c3ccccc3)o2)s1 | i | -0.1
CCSc1ncc2c(=O)n(CC(=O)NCCC3=CCCCC3)cnc2n1 | i | -0.36
Cn1nc(C(=O)N2CCCC(C(=O)Nc3ccccc3)C2)c2c1CCN(C(=O)C1CCC1)C2 (stereo not given) | i | -0.7
CCOC(=O)c1cnc2c(OC)cccc2c1NCC1COc2ccccc2O1 (stereo not given) | i | 0.13
Cc1nc2ccccc2c(=O)n1-c1ccc(NC(=O)C2CC2)cc1 | i | 0.77
CCCN1C=NS(=O)(=O)c2cc(C(=O)NC(C)CC)ccc21 (stereo not given) | i | -0.44
Cc1cccc(N2CCN(C(=O)CN3C(=O)CCn4nc(-c5cn(C)c6ccccc56)cc43)CC2)c1C | i | 0.39
CCc1nc2nc3c(c(Nc4ccc(C)c(C)c4)n2n1)CCC3 | i | 0.9
CC(c1ncncc1F)[C@](O)(Cn1cncn1)c1ccc(F)cc1F (stereo not given in full) | i | 0.36
CCOC(=O)CC1(NC(=O)N2CCC(c3nc4cccnc4n3C)C2)CCCCC1 (stereo not given) | i | -0.29
Cc1ccccc1OCCSc1nc2ncnc(N)c2[nH]1 | i | 0.22
COc1ccc(S(=O)(=O)N2CCC(NC(=O)NCCN3CCCCC3)CC2)cc1 | i | -1.8
CCCN1CCN(C(=O)CN2C(=O)C3CCCN3C(=O)c3cc(F)ccc32)CC1 (stereo not given) | i | -0.9
